Ba CapD inh – blocks the Bacillus anthracis CapD enzyme; purified CapD enzyme, fluorescence intensity read-out; stronger effect = lower value; some hits fall short of the stated cut; z-score (concentration not given with the values); 140,000 compounds, 0.23% hits;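 active means z-score under -4 in either of two replicates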;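 further: stock transfer was 100 nL into about 40 µL; score is relative to mean and spread of the plate; one replicate is shown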
AID504770 – growth inhibitors of E. coli YBA685 in a screen for V. cholerae RctB (chromosome II replication) inhibitors. E. coli YBA685 rctB-dependent plasmid, OD600 growth, 3 h; stronger effect = lower value. AID 504770. z-score (test concentration not listed). 130,000 compounds, 0.27% hits;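 active means z-score under -2 on both plates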;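 further: wells of about 30 µL received 100 nL stock; score is relative to mean and SD of the test wells; the first replicate is given; strong numbers were not always called active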
Starred values were filed as active, the others as inactive; x = not tested or not shown. This is a subset. The share of hits here may be higher or lower than overall.

compound | Ba CapD inh | AID504770
N#CC1=C(N)N(c2ccc(Br)cc2)C2=C(C(=O)CCC2)C1c1ccc([N+](=O)[O-])cc1 (centres undefined) | 0.65 | x
CCOc1ccccc1NC(=O)c1cc(=O)c2ccccc2o1 | -0.26 | 2.4
Cc1ccc(S(=O)(=O)NC2CCCCC2)c2nsnc12 | x | -0.05
O=C(c1cc2nc(-c3ccc(Br)cc3)cc(C(F)(F)F)n2n1)N1CCOCC1 | -0.46 | x
CC(C(=O)N1CCCCC1)N(c1ccccc1)S(C)(=O)=O (centres undefined) | x | 0.4
COc1cccc(N2CCN(C(=O)c3nn(C)c4c3COc3ccccc3-4)CC2)c1 | 0.095 | -0.2
O=C1CC(n2nnnc2-c2ccccc2)C2COC1O2 (centres undefined) | -0.55 | -2
Cn1cc(CC(=O)NC2CCCCC2)c2ccccc21 | 0.34 | 0.55
CCOC(=O)c1ccc(Nc2ncnc3ccc(Br)cc23)cc1 | 0.96 | x
COc1ccc(Cl)cc1N1C(=O)C2C(c3ccc(Br)cc3)OC3(C(=O)c4ccccc4C3=O)C2C1=O (centres undefined) | 0.48 | x
Cc1ccccc1NC(=O)c1cc2ccccc2cc1O | -0.085 | -0.4
Nc1nonc1C(=O)OCC(=O)N1CCOCC1 | -0.38 | -0.5
COc1ccc(C(=O)NC(C(=O)N2CCN(c3ccccc3O)CC2)C(C)C)cc1 (centres undefined) | x | 0.4
O=S(=O)(c1cccc(C(F)(F)F)c1)N(CCCN1CCOCC1)Cc1cccs1 | 0.12 | 0.9
O=C(Oc1cccc(-c2cnc3ccccc3n2)c1)c1ccco1 | x | 1.8
Fc1ccc(NC(=S)N2CCCCC2CCN2CCOCC2)cc1 (centres undefined) | 0.15 | 0.4
COc1ccc(C2=NN(C(=O)c3cccnc3)C(c3ccccc3O)C2)cc1 (centres undefined) | x | 0
COC(=O)C1c2sc(=O)[nH]c2SC2C(=O)N(c3ccc(Br)cc3)C(=O)C21 (centres undefined) | x | -0.45
COc1ccc(CCNC(=O)Cn2c(SCc3ccc(C)cc3)nc3cccnc32)cc1OC | 108 | -0.45
O=C1CCC2C(=O)N(CC(=O)N3CCCC3)C(=O)C2C1 (centres undefined) | 0.13 | x
Cc1c(CC(Cl)(Cl)Cl)c2c(n1O)CC(C)(C)CC2=O | -0.27 | x
C(=N\n1cnnc1)/c1nc2ccccc2n1Cc1ccccc1 | 35 | -1.4
CCOC(=O)c1nnn2c1nc(SCC(N)=O)c1ccccc12 | 7.4 | -0.8
COc1ccc(S(=O)(=O)N(C)c2ccc(OCC(=O)Nc3cc(C)on3)cc2)cc1 | x | 0.4
N#Cc1c2n(c3c(=O)n(CC(=O)c4ccccc4)cnc13)CCCC2 | -0.05 | x
Cc1ccccc1-n1c(=S)sc2c(=O)n(-c3ccc(F)cc3)c(=S)[nH]c21 | -0.82 | x
COc1ccc(CNc2nc3nc4c(c(=O)n3[nH]2)CCC4)cc1OC | 0.36 | 0.55
CCn1c(C(=O)O)c(CC(=O)NC2CCCCCC2)c2ccccc21 | 0.46 | -0.1
COc1ccc(C(c2nnnn2CC2CCCO2)N2CCN(c3ccc(F)cc3)CC2)cc1OC (centres undefined) | x | 2
COc1ccc2c(c1)CCc1sc(NC(=O)c3ccco3)nc1-2 | 1.1 | 0.3
Nc1ccc2nc(SCc3ccccc3Cl)sc2c1 | -0.18 | -0.3
O=C(N=S1CCN(c2ncc(C(F)(F)F)cc2Cl)CC1)Nc1ccc(Cl)cc1 | -1.5 | -0.85
CN(C(=O)c1cc(Cl)cc(Cl)c1)C1CCCCC1 | 0.88 | 1.5
CN1CCN(c2ccccc2C=C(C#N)C#N)CC1 | -0.14 | -1.5
O=C(Nc1cc(Cl)ccc1N1CCCCCC1)c1ccc(Cl)cc1Cl | -0.83 | x
O=C1C2C=CC=CC2=NC(=S)[N+]1=Nc1c(O)[nH]c2ccccc12 (centres undefined) | 0.48 | -0.95
O=C(c1ccccc1)n1cnc2ccccc21 | 0.26 | -0.55
COc1ccc(-n2cc(C(=O)NCCN3CCc4ccccc4C3)c3ccccc3c2=O)cc1 | -0.23 | 1.1
Cc1sc2c(c1C)CN(C(C)(C)C)CN2C(=O)c1ccccc1 | 0.73 | -0.4
COc1ccc(-c2cc(C(=O)N3CC(C)OC(C)C3)c3ccccc3n2)cc1OC (centres undefined) | x | 0
CN(C)S(=O)(=O)c1ccc(C(=O)NCC2CCCO2)cc1 (centres undefined) | x | -0.6
CCc1cc(=O)oc2c(C)c(OC)ccc12 | -0.29 | 0.05
COC(=O)c1ccc(C(=O)Nc2cc(Cl)ccc2Cl)cc1N | 12 | -0.6
Cc1c(C)n(Cc2ccccc2)c2ccc(C(=O)OCCN3CCOCC3)cc12 | 3.7 | -0.4
Cc1cc(C)cc(NC(=O)Cn2c(=O)oc3cc(S(=O)(=O)N4CCCCCC4)ccc32)c1 | -0.42 | -0.5
Nc1nc2c(c(=O)[nH]1)C(c1ccccc1)C1=C(N2)c2ccccc2C1=O (centres undefined) | x | 0.25
NC(=O)COC(=O)/C=C/c1ccc(Cl)cc1 | x | -0.3
COc1ccccc1/C=C1\CS/C(=C\c2ccccc2OC)C1=O | -1.2 | -0.4
O=c1[nH]cnc(O)c1Cc1c(O)nc[nH]c1=O | x | -1.2
O=C(O)c1cccc(N2C(=O)C3C4c5ccccc5C(c5ccccc54)C3C2=O)c1 (centres undefined) | 0.22 | x

Next compounds.
compound | Ba CapD inh | AID504770
CC(=O)Nc1ncc2c(n1)CC(c1ccccc1)CC2=O (centres undefined) | -0.38 | 0.75
O=C(Cc1csc2ccc(Cl)cc12)OCc1ccccc1 | 0.8 | -0.6
CCC(CC)C1C(C#N)=C(N)SC(N)=C1C#N | x | -0.8
CC(C)(C)NC(=S)N/N=C/c1ccc(O)cc1 | -3.8 | 1
CCc1ccc(C2CC(=O)Nc3c2c(C)nn3-c2nc3ccccc3s2)cc1 (centres undefined) | -0.65 | 0.9
OC(Cn1cncn1)(Cn1cncn1)c1ccc(F)cc1F | -0.92 | 0.6
CC(C)(C)NC(=O)CCn1nc(-c2ccccc2)c2ccccc2c1=O | x | -0.45
O=C(O)Cn1cc(C(=S)N2CCCCC2)c2ccccc21 | -0.57 | 1.5
COc1ccc2ccccc2c1Br | -0.51 | -1.1
FC(F)(F)c1ccc(Oc2ccc(Oc3ccc(C(F)(F)F)cn3)cc2)nc1 | -0.25 | -0.85
O=C(NS(=O)(=O)NC(=O)c1ccccc1)c1ccccc1 | 0.15 | -0.55
Cc1ccc2nc(CCC(=O)O)[nH]c2c1 | 0.26 | -0.5
C=C(C)CN(CC)C(=O)CSc1nnc(Cc2cccc3ccccc23)n1N | x | 0.05
COc1cc(CN(Cc2ccco2)S(=O)(=O)c2ccc(F)c(F)c2)cc2c1OCO2 | 0.38 | x
CCCCn1c(N)c(N(C(=O)c2ccc(Cl)c(Cl)c2)C2CCCC2)c(=O)[nH]c1=O | x | -0.05
COc1ccc(CCNC(=O)C2CCCO2)cc1OC (centres undefined) | 0.43 | x
CC(C)(CNC(=O)c1cc(=O)[nH]c2ccccc12)N1CCOCC1 | x | 2.9
CCOC(=O)c1sc(N2N=C(C)/C(=C\c3ccco3)C2=O)nc1C | 1.4 | -1.4
COc1ccccc1NC(=O)CCC(=O)N1N=C(c2ccc(Br)cc2)CC1c1ccccc1 (centres undefined) | 0.27 | x
CCOC(=O)c1nc(N2CCc3ccccc32)c2ccccc2n1 | -0.33 | -0.1
COC(=O)/C(C#N)=C/c1cccc(Br)c1 | -0.24 | 1.4
C(=NCc1ccc2c(c1)OCO2)c1cccnc1 | 1.8 | -1.1
Cc1cc(C(=O)COC(=O)c2ccc(=O)n(Cc3ccccc3)n2)c(C)n1C1CC1 | x | 0.25
CC(NC(=O)Cc1ccsc1)c1ccc(S(N)(=O)=O)cc1 (centres undefined) | x | 0.65
COc1ccc(C2CC(c3ccccc3)n3ncnc3N2C(C)=O)cc1 (centres undefined) | x | -0.15

Some values from the entries so far:
Result of `CCOc1ccccc1NC(=O)c1cc(=O)c2ccccc2o1` in Ba CapD inh: -0.26
Result of `CCCCn1c(N)c(N(C(=O)c2ccc(Cl)c(Cl)c2)C2CCCC2)c(=O)[nH]c1=O` in AID504770: -0.05
Result of `OC(Cn1cncn1)(Cn1cncn1)c1ccc(F)cc1F` in AID504770: 0.6
Result of `Cc1sc2c(c1C)CN(C(C)(C)C)CN2C(=O)c1ccccc1` in Ba CapD inh: 0.73
Result of `C(=NCc1ccc2c(c1)OCO2)c1cccnc1` in Ba CapD inh: 1.8
Result of `CCc1ccc(C2CC(=O)Nc3c2c(C)nn3-c2nc3ccccc3s2)cc1` (centres undefined) in AID504770: 0.9

The listing continues.
compound | Ba CapD inh | AID504770
N#C/C(=C\NCc1cccs1)S(=O)(=O)Cc1ccc(Cl)cc1 | -0.53 | x
Cc1ccsc1C1N(Cc2ccccc2)CCN1Cc1ccccc1 | 0.11 | x
CCOC(=O)C(C)C1(O)c2ccccc2-c2ncccc21 (centres undefined) | x | -0.85
Cc1cccnc1NC(=O)c1ccc(S(=O)(=O)N2CCCCC2)cc1 | x | 0.05
COc1cc(-c2nc(Nc3ccc(C)c(F)c3)c3ccccc3n2)cc(OC)c1OC | -0.89 | -0.85
Cc1cc2c(cc1C)NC(C)CC(=O)N2 (centres undefined) | -0.81 | x
CCN(CC)CCCC(C)Nc1nc(C)nc2cc(Cl)ccc12 (centres undefined) | 0.98 | x
C[C@H](CCC(=O)NCC(=O)O)[C@H]1CC[C@H]2[C@@H]3[C@H](O)C[C@@H]4C[C@H](O)CC[C@]4(C)[C@H]3C[C@H](O)[C@]12C | 0.08 | x
CCCc1[nH][nH]c(=O)c1C(c1ccc(Cl)cc1)C(C#N)C#N (centres undefined) | x | 0.15
Cc1nc(SCC(=O)c2cn(CCC#N)c3ccccc23)n(C2CCCCC2)c1C | x | -0.3
COC(=O)/C(C#N)=C1/C(=O)Nc2ccccc21 | -0.94 | -0.8
CCOc1ccc(-n2c(/C=C/c3cccc([N+](=O)[O-])c3)nc3cc(OC)c(OC)cc3c2=O)cc1 | -0.1 | x
CC(Sc1nc2c(n1-c1ccccc1)CCCC2)C(=O)Nc1ccc(S(N)(=O)=O)cc1 (centres undefined) | x | -0.1
CO/N=C/C1=C(Sc2nc3ccccc3s2)CCCC1 | x | -0.35
COC(=O)c1cc(Nc2ncnc3c2cnn3-c2ccc(Cl)cc2)cc(C(=O)OC)c1 | -0.26 | x
CN(Cc1ccccc1)C(=O)C1CCCN1S(=O)(=O)c1ccc2c(c1)CCCC(=O)N2 (centres undefined) | 0.095 | -0.1
C=CCNc1cnn(-c2ccc(C)cc2)c(=O)c1Sc1ccc(C)cc1 | -0.86 | x
CSc1nn(-c2c(Cl)cc(C(F)(F)F)cc2Cl)c(N)c1C#N | -0.48 | -1.1
CCOC(=O)NC(=S)N1CCc2nc3ncccc3cc2C1 | -0.16 | x
COc1ccc(N=C2SCC(C(C)(C)C)=NN2C)cc1 | 0.47 | 0.15
CCO/N=C(\C)c1ccc(C)nc1 | 0.34 | x
Cc1ccc2cc(NC(=O)C3CC(=O)N(CCc4ccc(Cl)cc4)C3)ccc2n1 (centres undefined) | 8.1 | 1.5
COC(=O)c1ccc(CSc2ccc(S(=O)(=O)N3CCCC3)cn2)o1 | x | 0.1
O=C(O)CCC(=O)c1ccc2c(c1)OCCO2 | 1.8 | x
O=c1n(-c2ccccc2)c(=O)n2n1CCC2 | -0.56 | -0.4
O=C(O)[C@@H]1Cc2ccccc2N1 | 0.22 | x
O=C(O)CCC(=O)Nc1ccccn1 | 2.8 | 0.25
CC(C)(C)C(=O)COC(=O)c1ccc2c(=O)n3c(nc2c1)CCCCC3 | x | -2.2
COc1cc(OC)nc(C(SCCNC(=O)c2ccc(Cl)nc2)c2ccccc2)n1 (centres undefined) | -0.85 | x
CN1CCOc2cc(S(=O)(=O)NC3CCCCNC3=O)ccc21 (centres undefined) | 0.52 | 1.6
O=C(OCC1CCCO1)c1ccccc1C(F)(F)F (centres undefined) | 0.5 | 0.15
COc1cccc2c1NC(c1cccc(Cl)c1Cl)C1CC=CC21 (centres undefined) | -0.12 | x
O=C(COC(=O)c1c2c(nc3ccccc13)CCCC2)NCc1ccco1 | x | -1
Cc1nn(CC(=O)NC2CCCC2)c(=O)c2cccn12 | 0.07 | -0.25
CC(C)(C)S(=O)(=O)/C(C#N)=C/NN1CCCCC1 | -0.15 | -0.45
CC(C)c1cc(C(=O)N2CC3(C)CC2CC(C)(C)C3)no1 (centres undefined) | 0.39 | -0.2
COC(=O)c1c(=O)n(O)c2cc(Cl)c(Cl)cc2[n+]1[O-] | -1.1 | 0.5
COc1cc(/C=C/C(=O)OCc2c(C)noc2C)cc(S(=O)(=O)N2CCc3ccccc32)c1OC | x | -1.4
Cn1c(=O)c2c(nc(NC3CCCCC3)n2Cc2cccc(Br)c2)n(C)c1=O | 2.2 | x
Cc1ccc(Sc2ccc3noc4c3c2C(=O)c2ccccc2-4)cc1 | 0.95 | x
COc1ccc(NS(=O)(=O)c2cccc3nsnc23)c(OC)c1 | x | 0.3
COc1ccc(-c2nc(SCc3ccccc3C#N)[nH]c(=O)c2C#N)cc1 | 1.8 | -0.65
CC1SCC(=O)N(CC(=O)NC2CCCCC2)C1=O (centres undefined) | x | 0.95
CC(=O)Oc1ccc(-c2nc3ccccc3c(=O)o2)cc1 | 0.39 | -0.85
N#CCCc1c(Br)ccc(OCc2ccccc2)c1OCc1ccccc1 | 0.59 | x

4 entries drawn at random from the list so far, as already listed:
compound | Ba CapD inh | AID504770
COc1cccc2c1NC(c1cccc(Cl)c1Cl)C1CC=CC21 (centres undefined) | -0.12 | x
O=C(OCC1CCCO1)c1ccccc1C(F)(F)F (centres undefined) | 0.5 | 0.15
O=C(O)CCC(=O)Nc1ccccn1 | 2.8 | 0.25
CC(=O)Oc1ccc(-c2nc3ccccc3c(=O)o2)cc1 | 0.39 | -0.85

Screens (PubChem BioAssay)
